Vif TR-FRET = HIV-1 Vif–A3G interaction blockers – biochemical, TR-FRET, GST-Vif 1-94, biotin-A3G peptide, dose response retest, primary screen (AID 1117319); TR-FRET GST-Vif / biotin-A3G peptide binding; higher % means a stronger effect; test concentration not given here; strong numbers were not always called active; one-dose inhibition, %; IC50 in µM for titrated hits; 260,000 tested, 0.57% active;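 active = above the screen mean plus three standard deviations and confirmed in dose response; inconclusive = results disagree or hit not tested in dose response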;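 note: Vif residues 1-94 fused to GST binding biotinylated APOBEC3G peptide 110-148; 0% = full assay without inhibitor and 100% = GST in place of GST-Vif; retest series ran down from 100 µM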
AF4-AF9 inh = inhibitors of human MLL-AF4/AF9 interaction; P42568; AlphaScreen, biotin-AF4 peptide binding to FLAG-AF9; inhibition, % at 10 µM; 350,000 tested, 0.47% active; AID 651704;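 active = every replicate reaching a set inhibition limit, whatever the replicate mean, cut at about 25% in these data; inconclusive = mean inhibition reaches that limit but some replicates miss it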;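 note: 0% = plate neutral control median and 100% = total signal loss; the record names both 10 and 1 µM as test concentration; the first replicate is given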
Target sequence (P42568 whole entry, looked up): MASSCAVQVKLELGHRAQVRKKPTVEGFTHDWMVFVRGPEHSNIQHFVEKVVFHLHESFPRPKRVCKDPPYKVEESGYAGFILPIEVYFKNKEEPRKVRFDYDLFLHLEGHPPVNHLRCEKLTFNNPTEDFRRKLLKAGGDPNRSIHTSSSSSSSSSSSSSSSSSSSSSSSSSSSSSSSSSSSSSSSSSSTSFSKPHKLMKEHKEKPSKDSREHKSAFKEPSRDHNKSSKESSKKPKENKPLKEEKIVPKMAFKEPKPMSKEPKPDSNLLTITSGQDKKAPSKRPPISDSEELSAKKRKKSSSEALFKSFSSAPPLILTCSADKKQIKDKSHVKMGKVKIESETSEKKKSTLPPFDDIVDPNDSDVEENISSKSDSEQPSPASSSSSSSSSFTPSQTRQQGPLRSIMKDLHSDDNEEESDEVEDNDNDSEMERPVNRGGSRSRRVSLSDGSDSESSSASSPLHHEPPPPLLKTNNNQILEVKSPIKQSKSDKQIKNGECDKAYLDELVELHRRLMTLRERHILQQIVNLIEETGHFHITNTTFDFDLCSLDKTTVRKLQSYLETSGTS
RanGTP-Imp inh = disruptors of Ran-importin-beta complex formation – biochemical, FRET, CFP-Ran, YFP-importin-beta, homogeneous, primary screen; cell-free CFP-Ran/YFP-importin-beta FRET ratio; inhibition, % (concentration not given with the values); 300,000 tested, 1.1% active; AID 2216;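 active = most replicates above 15%; inconclusive = exactly half above 15%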;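 note: 0% = DMSO wells and 100% = Ran loaded with GDP instead of GTP; wells of about 40 µL received 100 nL stock; the first replicate is given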
Beta apoptosis = blocks beta cell apoptosis; 300,000 tested, 0.8% active; protection from apoptosis, % (no concentration beside the values); INS-1E cytokine-induced death, ATP luminescence, 48 h; percent of positive-control rescue, neutral wells zero;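 active = all replicates at 75% or more, or half of them and the mean; inconclusive = half reach 75% but not the mean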;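 note: 0% = cytokine-treated negative control wells and 100% = positive control rescue; higher means more ATP so stronger rescue from cytokine killing; wells of about 40 µL received 100 nL stock; the first replicate is given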
Bfl-1 A1 inh = inhibitors of the anti-apoptotic protein A1, read as caspase activation; MEF A1-2A-BIM cells, Caspase-Glo 3/7 luminescence, 3 h; percent of clofoctol response, vehicle zero; caspase activation, % (concentration not given with the values); 330,000 tested, 0.066% active; AID 2462;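 active = over half of replicate activation scores above 10%, or exactly half above 10 with the replicate mean above 10; inconclusive = replicate mean below 10 yet half the replicates above 10; inactive = over half of replicates below 10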;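 note: wells of about 30 µL received 50 nL stock; many hits fall short of the cut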
Calb FLC = C. albicans growth modulation with fluconazole | C. albicans CaCi-2 (fluconazole-resistant clinical isolate) + fluconazole, Alamar Blue growth, 48 h | growth inhibition, % (test concentration not listed) | 300,000 tested, 0.57% active;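 active = most replicates above 75%; inconclusive = exactly half above 75%; inactive = most below 75%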;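 note: all wells also contain fluconazole at 8 µg/ml as a sub-toxic cotreatment; 0% = median of DMSO wells and 100% = median of geldanamycin control wells; wells of about 8 µL received 7.5 nL stock; the first replicate is given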
T cruzi repl = T. cruzi replication inhibition; T. cruzi beta-gal in NIH3T3, luminescence, 90 h; inhibition, % (no concentration beside the values); 300,000 tested, 1.4% active;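 active = mean inhibition across valid replicates above about 55%, limit read from the data; inconclusive = mean below that limit but half or more replicates reach it; inactive = mean below it, under half of replicates reach it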;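 note: signal also drops with host cell toxicity which is not excluded here; 0% = plate median of DMSO wells and 100% = zero luminescence signal; higher percent means less beta-gal luminescence so fewer parasites; stock transfer was 50 nL into about 50 µL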
Ecoli rRNA inh = inhibitors of bacterial rRNA selective over humanized ribosomes | 350,000 tested, 1.6% active | GFP signal change (wild-type ribosome), % (concentration not given with the values) | E. coli WT GFP vs humanized-ribosome RFP mutants, fluorescence, 24 h; active compounds read low; DMSO median 0, no signal -100;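 active = significant combined selectivity score with lowered wild-type GFP, culture density cut under 30%, mutant RFP and density less affected; inactive = any of these conditions unmet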; note: one replicate is shown; some compounds called inactive have numbers as strong as hits
Ecoli rRNA inh OD600 = also measured in Ecoli rRNA inh; calls as there; OD600 change, %; measured here: OD600 growth;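 optical density of the mix in the first replicate; 0 = DMSO median and -100 = no signal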
Ecoli rRNA inh RFP = further read-out of Ecoli rRNA inh, marked with its call; RFP signal change, %; measured here: RFP humanized mutant strains;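 first replicate; 0 = DMSO median and -100 = no signal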
Active calls of the source: *; ? = inconclusive; nt = not tested or not shown. Some of the compounds tested. The share of hits here may be higher or lower than overall.

SMILES | Vif TR-FRET | AF4-AF9 inh | RanGTP-Imp inh | Beta apoptosis | Bfl-1 A1 inh | Calb FLC | T cruzi repl | Ecoli rRNA inh | Ecoli rRNA inh OD600 | Ecoli rRNA inh RFP
O=C(Cn1nc(-c2ccccc2)c2ccccc2c1=O)NCCN1CCOCC1 | 15.9% | nt | 3.5 | -5.1 | 1.4 | 1.6 | -5.8 | nt | nt | nt
CC(C)Cc1cc(C(=O)Nc2cc(C(F)(F)F)ccc2Cl)no1 | 14.1% | nt | 4.5 | 2.7 | 1.1 | -8.5 | 11.2 | nt | nt | nt
CCCNc1nc(N2CCCC2)nc(N2CCCC2)n1 | 17.1% | 6.5 | 2.4 | 33.7 | 0.7 | -16.0 | 30.8 | -21.1* | -9.0* | -8.7*
COc1ccc(OC)c(CN2CCN(C(=O)CNC(=O)c3ccccc3F)CC2)c1 | -3.2% | 4.7 | nt | -6.7 | 1.2 | nt | nt | 5.4 | 6.4 | 1.1
CCN(CC(=O)NCc1ccc(F)cc1)C(=O)COc1ccc(C)c(C)c1 | nt | nt | 3.7 | -1.6 | -0.2 | 8.5 | -3.9 | nt | nt | nt
C=CCOc1ccc(C2=NO[C@@H]3[C@@H]4C[C@@H]([C@H]5C(=O)N(C)C(=O)[C@@H]45)[C@H]23)cc1 | 5.6% | 0.3 | -2.4 | -1.5 | -0.6 | 0.8 | 10.8 | nt | nt | nt
CCOC(=O)C1CCN(C(=O)CCNC(=O)c2ccccc2OC)CC1 | nt | 2.3 | -1.1 | -7.9 | 0.0 | -1.0 | -10.4 | 13.6 | 5.2 | 0.4
Cc1cc(C)nc(N2CCC(C(=O)NNC(=O)c3ccccc3)CC2)n1 | nt | -0.2 | -2.4 | 2.7 | 0.3 | 0.5 | -4.8 | 8.7 | 9.2 | 2.1
CCOc1cc2c(C#N)c(N3CCCCC3)nc(N)c2c(N)n1 | 18.7% | nt | -1.2 | 0.5 | 0.9 | 21.6 | -16.1 | nt | nt | nt
Cc1ccc(NC(=O)COC(=O)c2ccc3c(c2)OCO3)c(C)c1 | -7.3% | -13.6 | -1.5 | -9.5 | -0.7 | -2.4 | -19.0 | 4.6 | -0.3 | -2.7
O=C(CCNC(=O)Cn1ccc2ccccc2c1=O)NCCN1CCN(c2cccc(Cl)c2)CC1 | 0.0% | nt | -2.7 | -16.9 | 1.2 | -2.4 | -22.7 | nt | nt | nt
NC(=O)NC1NC(=O)NC1=O (stereo not given) | nt | -0.8 | -0.7 | nt | 0.3 | -1.0 | -0.3 | nt | nt | nt
CCN(CC)CCn1cnc2c1c(=O)n(CCOC(=O)c1cc(OC)c(OC)c(OC)c1)c(=O)n2C | nt | 1.9 | 0.6 | -3.6 | 0.5 | -8.0 | -3.0 | -0.5 | 2.8 | -0.9
CCCCCCC1CCC(c2nc(-c3ccncc3)no2)CC1 (stereo not given) | 1.6% | nt | -0.9 | 7.7 | 0.1 | 17.7 | 9.6 | nt | nt | nt
CCN(CC)c1ccc(N=C2C(=O)Nc3ccccc32)cc1 | 25.4% | 57.3* | -4.2 | 87.1* | -0.3 | -23.2 | 50.5 | -1.5 | -4.7 | 28.9
CCn1c(SCC(=O)NCc2ccccc2)nnc1-c1ccccc1O | 23.1% | -15.4 | -5.0 | 2.4 | -1.7 | -1.3 | -2.9 | -2.9 | 0.2 | -2.8
CC1(C)NC(=O)N(CC(=O)OCC(=O)Nc2cc(S(=O)(=O)N3CCCCCC3)ccc2Cl)C1=O | -14.5% | nt | 3.6 | 1.6 | 0.7 | -4.4 | -31.1 | nt | nt | nt
COC(=O)c1ccc(CN2C(=O)c3ccccc3C2=O)cc1 | nt | 0.6 | 1.2 | -1.2 | 0.6 | -4.2 | -9.9 | 1.1 | 0.7 | -0.9
CC1=CC(=Nc2c(C)n(C)n(-c3ccccc3)c2=O)C=CC1=O | 5.02µM* | nt | 0.3 | 3.8 | -0.1 | 2.4 | -3.9 | nt | nt | nt
CCC(Oc1ccccc1)C(=O)Nc1ccccc1C(=O)N1CCN(C)CC1 (stereo not given) | 4.9% | 0.2 | 0.2 | -2.0 | 0.6 | -1.0 | 4.2 | 3.7 | 1.1 | 1.8
CCc1ccc(NS(=O)(=O)c2c(C)nc3sc(CC)nn3c2=O)cc1 | nt | -1.5 | nt | -3.4 | 0.0 | nt | nt | -8.7 | -28.1 | 7.2
CCC(=O)NNc1nc2c(C)c(C)ccc2s1 | 11.4% | -1.5 | nt | -1.3 | -0.7 | -25.6 | -23.0 | 3.8 | -3.0 | -5.8
CCCCOC(=O)c1ccc(-c2ccc(/C=N/NC(=S)NCC)o2)cc1 | -1.0% | nt | 43.5* | 19.9 | -0.5 | 24.1 | -30.5 | nt | nt | nt
C[C@@]12CCC3[C@@](CCC4[C@@]3(C)CCC[C@@]4(C)C(=O)NC3CCCCC3)(CC1=O)C2 (stereo not given in full) | nt | -1.5 | nt | -2.9 | -0.4 | nt | nt | -7.6 | -3.7 | 5.2
CC(=O)c1cccc(N=Cc2c(O)ccc3ccccc23)c1 | -6.4% | -1.4 | -1.1 | -10.2 | ? | 4.4 | -1.0 | 14.4 | 5.0 | 6.3
CCOP(=O)(OCC)C(Nc1cc(Cl)cc(Cl)c1)c1cccc(O)c1 (stereo not given) | 4.8% | -2.7 | 3.8 | 2.2 | -0.3 | -2.0 | 6.6 | -12.8 | -3.7 | 1.7
COc1ccc(C2c3[nH]c4ccccc4c3CCN2C(=O)c2cc3ncccn3n2)c(F)c1 (stereo not given) | 9.0% | 4.9 | -2.1 | 9.3 | 0.3 | ? | 33.0 | -3.6 | -10.3 | 14.9
O=C1c2ccccc2C(=O)N1CCCc1nc2ccccc2c(=O)n1Cc1ccco1 | -1.0% | nt | 5.9 | -1.7 | 1.5 | -0.8 | 6.1 | nt | nt | nt
COc1ccc(Oc2cc(C)c3ccccc3n2)cc1 | 8.4% | nt | 0.8 | -3.3 | -0.1 | -9.4 | nt | nt | nt | nt
COc1ccccc1N(C)S(=O)(=O)c1ccc(C(=O)OCC(=O)c2c[nH]c3ccccc23)cc1 | 4.0% | 1.3 | -6.1 | -7.3 | -0.3 | -0.3 | -1.4 | -7.7 | -8.1 | 12.6
Cc1cnc(CN2CCc3c([nH]c4ccccc34)C2C2CCCCC2)[nH]1 (stereo not given) | 3.9% | 19.3 | 6.0 | 2.2 | -0.4 | 18.1 | 13.4 | -12.0 | -17.8 | -1.8
Cc1[nH]nc2c1C(c1cccc(O)c1)C1=C(CC(C)(C)CC1=O)N2 (stereo not given) | -3.7% | nt | ? | -3.8 | -0.3 | -1.0 | 7.5 | nt | nt | nt
Cc1nnc2n1CCCCC2 | -0.7% | -3.3 | -1.4 | -5.1 | 0.7 | 0.9 | -6.0 | 9.8 | 15.9 | -1.4
Cc1ccc(C(=O)C(OC(=O)c2cnccn2)c2ccccc2)cc1C (stereo not given) | 6.5% | 4.3 | -0.4 | 8.2 | -0.3 | -1.9 | 0.9 | nt | nt | nt
O=C(CCC(=O)Nc1nnc(C2CCCCC2)s1)NCC1CCCO1 (stereo not given) | -1.6% | nt | 1.2 | 0.8 | 0.3 | 4.4 | 3.8 | nt | nt | nt
COc1ccc(-n2cc(C(=O)c3cc4ccccc4oc3=O)c(C(C)=O)n2)cc1 | 0.5% | nt | 4.7 | 0.5 | 0.7 | 5.0 | -21.1 | nt | nt | nt
O=S(=O)(/N=C(/c1ccccc1)N1CCOCC1)c1ccc(F)cc1 | nt | -1.6 | 2.1 | nt | 1.1 | 2.4 | -17.4 | 7.5 | 7.3 | -0.5
O=C(Nc1ccc(N2CCOCC2)c(Cl)c1)c1ccc(-n2cnnc2)cc1Cl | nt | -3.0 | 1.8 | -4.2 | -0.4 | 5.2 | 3.7 | -11.2 | -1.8 | -5.3
CCOC(=O)CN(C#N)c1nc(N(C)C)nc(N(C)C)n1 | -8.6% | -3.7 | 3.4 | -3.7 | 0.3 | -18.2 | 8.9 | -18.9 | -38.1 | -8.3
c1ccc(-c2csc(NNC3=NCCCCC3)n2)cc1 | 16.8% | nt | -3.8 | 5.3 | -0.9 | -9.2 | 14.3 | nt | nt | nt
O=C(CSc1ccc2c(c1)OCCO2)Nc1ccc2c(c1)OCO2 | ? | nt | -3.3 | 2.7 | -0.1 | -1.3 | -14.1 | nt | nt | nt
Cc1c(Cl)cccc1NC(=O)CSc1nc(=O)n(CCCN2CCOCC2)c2c1CCC2 | 0.6% | 1.6 | 1.9 | -0.1 | -0.2 | 12.5 | -1.7 | 4.5 | 2.2 | 1.7
Cc1ccc(S(=O)(=O)NNC(=S)Nc2c(Cl)cccc2Cl)cc1 | nt | nt | ? | -10.5 | 0.4 | 20.1 | -7.9 | -9.9 | -4.3 | 4.3
CC1=C/C(=C(/c2ccc(O)c(C)c2)c2ccccc2S(=O)(=O)O)C=CC1=O | -6.0% | 1.1 | nt | -5.7 | -0.8 | nt | nt | -7.8 | 26.9 | 8.7
Cc1ccccc1NS(=O)(=O)c1cccc2nsnc12 | -7.1% | 0.7 | 3.9 | 2.5 | 1.6 | 12.3 | 0.6 | 7.0 | 3.1 | -1.8
COc1ccc(Cl)cc1C(=O)NNC(=O)c1cccc(S(=O)(=O)N(C)C)c1 | nt | nt | 0.1 | -2.4 | 2.4 | 13.9 | -10.8 | nt | nt | nt
Cc1ccc(C2=NN(CC(=O)NCc3cccnc3)C(=O)CC2)cc1 | 13.0% | nt | -4.9 | -18.5 | 0.0 | 10.7 | -31.7 | nt | nt | nt
Cn1c(=O)c2c(nc(NCCOc3ccc(C(C)(C)C)cc3)n2C)n(C)c1=O | 1.5% | 1.7 | 1.1 | 10.0 | -0.4 | -3.2 | -12.2 | nt | nt | nt
CCOC(=O)C1CN(S(=O)(=O)c2cccc(C(F)(F)F)c2)c2cc(CC(=O)OC)ccc2O1 (stereo not given) | 23.8% | nt | 6.3 | -6.1 | 1.6 | 22.5 | -2.8 | nt | nt | nt
CCc1cc(C(=O)c2ccc(OC)cc2)c(NC(=O)CC(C)(C)CC(=O)O)s1 | nt | nt | -5.2 | 2.0 | -0.1 | -3.4 | -17.2 | -28.5* | -15.6* | 1.8*
COc1ccc(C(CNC(=O)C(=O)NC2CCCCC2)N2CCN(C)CC2)cc1 (stereo not given) | 2.6% | 3.1 | -3.6 | nt | 2.0 | -5.6 | -8.7 | 4.2 | 1.2 | -1.5
Cc1ccc2c(c1)N(CC(=O)NCCCN1CCOCC1)C(=O)C(C(C)C)O2 (stereo not given) | -4.0% | 3.8 | 2.3 | -0.8 | 0.2 | -6.7 | -8.8 | 4.1 | 1.9 | -2.8
O=C(NCCc1cccc(Cl)c1)c1cccnc1 | -2.5% | nt | -0.1 | 6.2 | -1.1 | 0.4 | -9.3 | 8.9 | 12.9 | 2.5
